rRNA inh HTS = inhibitors of bacterial rRNA selective over humanized ribosomes; E. coli WT GFP vs humanized-ribosome RFP mutants, fluorescence, 24 h; active compounds read low; DMSO median 0, no signal -100; GFP signal change (wild-type ribosome), % (no concentration beside the values); 1.6% of 350,000 active; AID 720706;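 active = significant combined selectivity score with lowered wild-type GFP, culture density cut under 30%, mutant RFP and density less affected; inactive = any of these conditions unmet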; note: one replicate is shown; some compounds called inactive have numbers as strong as hits
FGF22 binding = shifts melting point of recombinant human FGF22; AID 651658; 1.5% of 340,000 active; recombinant FGF22 thermal shift, SYPRO orange fluorescence; percent of sucrose octasulfate shift, DMSO zero; Q9HCT0; calls only at 9.99 µM;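 active = melting point raised past a set limit in the mean and every replicate; three in four hits are not shown here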
Target sequence (Q9HCT0 whole entry, looked up): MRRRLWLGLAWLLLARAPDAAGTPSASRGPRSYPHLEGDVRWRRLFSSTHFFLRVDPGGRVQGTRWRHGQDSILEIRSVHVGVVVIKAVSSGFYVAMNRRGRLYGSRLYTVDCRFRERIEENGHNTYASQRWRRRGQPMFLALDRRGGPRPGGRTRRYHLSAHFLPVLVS
MLL AF4-AF9 inh = MLL-AF4/AF9 protein interaction inhibition. AlphaScreen, biotin-AF4 peptide binding to FLAG-AF9. inhibition, % at 10 µM. 0.47% of 350,000 active. AID 651704;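 active = every replicate reaching a set inhibition limit, whatever the replicate mean, cut at about 25% in these data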;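 note: 0% = plate neutral control median and 100% = total signal loss; the record names both 10 and 1 µM as test concentration; the first replicate is given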
Target sequence (P42568 whole entry, looked up): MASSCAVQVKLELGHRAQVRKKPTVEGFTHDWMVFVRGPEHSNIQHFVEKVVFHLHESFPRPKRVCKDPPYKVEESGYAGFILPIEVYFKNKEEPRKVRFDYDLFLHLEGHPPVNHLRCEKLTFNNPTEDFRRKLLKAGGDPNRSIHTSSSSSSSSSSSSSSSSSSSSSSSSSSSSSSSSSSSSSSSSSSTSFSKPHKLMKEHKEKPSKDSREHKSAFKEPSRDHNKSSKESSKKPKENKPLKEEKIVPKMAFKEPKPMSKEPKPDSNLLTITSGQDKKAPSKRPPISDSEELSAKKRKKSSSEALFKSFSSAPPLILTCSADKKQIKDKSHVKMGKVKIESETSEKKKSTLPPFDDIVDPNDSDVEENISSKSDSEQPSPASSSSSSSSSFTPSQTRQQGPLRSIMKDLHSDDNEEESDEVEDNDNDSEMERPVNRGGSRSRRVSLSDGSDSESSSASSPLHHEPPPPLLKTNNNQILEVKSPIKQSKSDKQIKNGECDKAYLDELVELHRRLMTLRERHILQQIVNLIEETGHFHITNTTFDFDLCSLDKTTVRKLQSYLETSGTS
rRNA inh HTS OD600 = further read-out of rRNA inh HTS, marked with its call; OD600 change, %; measured here: OD600 growth;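 optical density of the mix in the first replicate; 0 = DMSO median and -100 = no signal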
rRNA inh HTS RFP = further read-out of rRNA inh HTS, marked with its call; RFP signal change, %; measured here: RFP humanized mutant strains;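 first replicate; 0 = DMSO median and -100 = no signal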
Active calls of the source: *; i = inactive; x = not tested or not shown; & = joins results of further samples.

The line under a structure holds: rRNA inh HTS | rRNA inh HTS OD600 | rRNA inh HTS RFP | FGF22 binding | MLL AF4-AF9 inh
> COc1cc(CN2C[C@@H](CO)O[C@@H](n3cnc4c(NC5CCCC5)ncnc43)C2)cc(OC)c1OC
 : 4 | 1 | -1.6 | i | -1.7
> CC=Cc1ccc2n(c1=O)C[C@@H]1[C@@H](CO)[C@H](C(=O)NCC3CC3)N(C(=O)CC3CC3)[C@H]21 (mixture of isomers)
 : 3 | 4 | 3.1 | i | -2.0
> Cc1ccc(S(=O)(=O)N[C@@H]2C=C[C@H](CC(=O)NC3CCCCC3)O[C@H]2CO)cc1
 : 0 | 2 | -0.2 | i | -0.8
> Cc1ccc(S(=O)(=O)N2CCN(C(=O)c3ccc(-n4cncn4)c([N+](=O)[O-])c3)CC2)c(C)c1
 : -7 | 2 | -2.5 | i | 4.3
> C[C@H]1CN([C@@H](C)CO)C(=O)Cc2cc(NC(=O)Nc3ccccc3)ccc2O[C@H]1CN(C)C(=O)Nc1ccccc1
 : 2 | -1 | -0.8 | i | -13
> C[C@H](CO)N1C[C@H](C)[C@H](CN(C)Cc2ccc(C(=O)O)cc2)Oc2c(NS(=O)(=O)c3ccccc3)cccc2C1=O
 : 2 | 12 | -0.2 | i | -1.6
> Cc1noc(C)c1NC(=O)Nc1cccc2c1O[C@H](CN(C)Cc1ccccc1)[C@H](C)CN([C@@H](C)CO)C2=O
 : 3 | -1 | -1.1 | i | -1.5
> C[C@H](CO)N1C[C@H](C)[C@@H](CN(C)Cc2ccc3c(c2)OCO3)Oc2ccc(N(C)C)cc2CC1=O
 : -3 | -3 | -0.5 | i | 19
> COc1ccccc1-c1ncn(Cc2cccc(-c3ccccc3)c2)c1CC(C)C
 : -54 | -50 | 14 | i | 1.1
> O=C(N[C@@H]1C=C[C@H](CC(=O)N2CCN(c3ccccc3)CC2)O[C@H]1CO)c1ccncc1
 : 1 | -12 | 1.8 | i | -14
> O=C(NCC1CC1)c1csc(COCCO)n1
 : 15 | 24 | 1.7 | i | -3.2
> C[C@H](CO)N1C[C@H](C)[C@@H](CN(C)C(=O)C2CC2)OCc2cn(nn2)CCCC1=O
 : 2&9 | -1&14 | 0.4&-1.5 | i | -2.6&0.0
> CCOc1cc(OCC)cc(C(=O)N2CCC[C@H]2C(=O)N2CCC[C@H]2C(=O)NCc2ccccn2)c1
 : 18 | -2 | 0.7 | i | 1.5
> O=C(NCc1ccccc1)C1Cc2c(-c3ccc(Cl)cc3)ccnc2O1 (centres undefined)
 : -9 | -61 | -3.8 | i | 1.2
> C[C@@H]1CN([C@@H](C)CO)C(=O)c2cc(-c3cccc(F)c3)cnc2O[C@H]1CN(C)Cc1ccccc1
 : 5 | 7 | -1.0 | i | -0.6

(continued)
The line under a structure holds: rRNA inh HTS | rRNA inh HTS OD600 | rRNA inh HTS RFP | FGF22 binding | MLL AF4-AF9 inh
> CN(C)C(=O)C[C@H]1CC[C@H](NC(=O)C2CC2)[C@@H](CO)O1
 : 4 | 3 | -3.5 | i | -2.4
> Cc1noc(C)c1NC(=O)Nc1cccc2c1O[C@@H](CN(C)S(=O)(=O)c1ccc(Cl)cc1)[C@@H](C)CN([C@H](C)CO)C2=O
 : 0 | 2 | 0.4 | i | -0.9
> O=S(=O)(Cc1ccccc1)N1CCCCN2[C@H](CO)[C@@H](c3ccc(-c4cccnc4)cc3)[C@@H]2C1
 : -2 | -16 | -3.5 | i | -8.1
> COCC(=O)N(C)C[C@H]1Oc2cc(C#CC3CC3)ccc2S(=O)(=O)N([C@H](C)CO)C[C@@H]1C
 : 0 | 10 | 0.0 | i | 2.1
> C[C@H](CO)N1C[C@H](C)[C@@H](CN(C)C(=O)Nc2ccccc2)Oc2cc(C#C[C@@H](C)O)ccc2S1(=O)=O
 : 2 | -6 | -3.2 | i | -2.2
> CCCNC(=O)N(C)C[C@@H]1Oc2cc(C#C[C@H](C)O)ccc2S(=O)(=O)N([C@@H](C)CO)C[C@H]1C
 : 3 | 12 | 3.1 | i | -2.7
> CCNC(=O)C[C@@H]1CC[C@@H]2[C@@H](COc3ccc(NC(=O)Nc4cccc(C)c4)cc3C(=O)N2C)O1
 : 3 | -1 | 0.7 | i | 1.7
> CN1C(=O)c2cc(NC(=O)c3ccc(F)cc3)ccc2OC[C@@H]2O[C@@H](CC(=O)NC3CCC3)CC[C@@H]21
 : -4 | -1 | -0.9 | i | -0.9
> COc1ccccc1-c1cccc([C@@H]2C[C@H]3[C@H](CON3C)CN2Cc2cc(Cl)cc(Cl)c2)c1
 : -1 | 4 | -2.9 | i | 4.3
> CCCNC(=O)N1C[C@H](O)COC[C@@H]2O[C@@H](CC(=O)N[C@H]3CCN(Cc4ccccc4)C3)CC[C@H]21
 : 2 | 5 | -4.4 | i | -1.5
> CCCNC(=O)Nc1ccc2c(c1)OC[C@H](C)N(C(=O)C1CCCCC1)C[C@@H](C)[C@H](OC)CN(C)C2=O
 : 4&-3 | 0&-9 | 2.7&-1.4 | i | -0.1&1.5
> COc1ccc(Cl)cc1-c1cc(C(=O)NCc2ccco2)[nH]n1
 : -34 | -59 | 31 | i | 1.0
> CC(C)C[C@@H](CN1CCC[C@H]1CN1C(=O)C(=O)NC[C@@H]1Cc1ccccc1)N1C[C@H](Cc2ccccc2)N(CC2CCCCC2)C(=O)C1=O
 : 16 | 4 | 1.4 | i | -4.1
> CCC(=O)N1CC2(C1)[C@@H](c1ccc(-c3ccc(F)cc3)cc1)[C@H](CO)N2C(=O)CC
 : -1 | 4 | 0.6 | i | -2.3
> Cc1noc(C)c1S(=O)(=O)Nc1ccc2c(c1)C(=O)N([C@@H](C)CO)C[C@H](C)[C@@H](CN(C)Cc1ccncc1)OCCCC[C@@H](C)O2
 : 3 | 5 | 0.0 | i | 1.4

Next section
Structure | rRNA inh HTS | rRNA inh HTS OD600 | rRNA inh HTS RFP | FGF22 binding | MLL AF4-AF9 inh
C[C@H]1CN([C@@H](C)CO)C(=O)c2cc(NC(=O)Nc3ccc4c(c3)OCO4)ccc2O[C@@H]1CN(C)S(=O)(=O)c1ccc(F)cc1 | -2 | -5 | 5.6 | i | 5.5
CCNC(=O)C[C@H]1CC[C@@H]2[C@@H](COc3ccc(NC(=O)Nc4ccc(Cl)cc4)cc3C(=O)N2C)O1 | -6 | -21 | 10 | i | 0.1
C[C@H](CO)N1C[C@H](C)[C@@H](CN(C)C(=O)Nc2ccc(F)cc2)Oc2ccc(NC(=O)C3CCCCC3)cc2CC1=O | 0 | -1 | 1.7 | i | -0.8
Oc1ccc(Cl)c(CN2CCN(c3ncc(Cc4ccccc4)cn3)CC2)c1 | -55 | -76 | -15 | x | 2.7
O=C(Nc1ccccc1)N1CCCCN2[C@H](CO)[C@H](c3ccc(C#Cc4ccccc4)cc3)[C@H]2C1 | -55 | -78 | -12 | i | 11
C[C@H]1CN([C@@H](C)CO)S(=O)(=O)c2ccc(-c3ccccc3)cc2O[C@@H]1CN(C)C(=O)Nc1ccccc1F | -5 | -4 | 7.1 | i | 8.6
COc1ccc2c3c([nH]c2c1)[C@@H](CO)N(C(=O)Nc1ccc(F)cc1)CC31CCN(S(C)(=O)=O)CC1 | -2 | -3 | -0.5 | i | 3.5
Cc1noc(C)c1S(=O)(=O)N(C)C[C@@H]1Oc2ccc(NC(=O)C3CC3)cc2CC(=O)N([C@H](C)CO)C[C@H]1C | 2 | 9 | -0.5 | i | -2.3
CO[C@@H]1CN(C)C(=O)c2ccc(NS(=O)(=O)c3ccc(F)cc3)cc2OC[C@H](C)NC[C@H]1C | 2 | 2 | -1.3 | i | -2.2
CCOc1cc(OCC)cc(C(=O)N2CCC[C@H]2C(=O)N2CCC[C@H]2C(=O)NCc2ccncc2)c1 | -3 | 8 | -2.8 | i | -1.9
C[C@H]1CN([C@@H](C)CO)C(=O)c2cccc(NC(=O)Nc3cccc4ccccc34)c2O[C@H]1CN(C)Cc1ccc(C(=O)Nc2ccccc2N)cc1 | -1 | -1 | 2.2 | i | -0.2
O=C1NC[C@H](Cc2ccccc2)N(CC2CCN(CCC3CCCC3)CC2)C1=O | 16 | 8 | 1.5 | i | -1.2

Next structures.
Structure | rRNA inh HTS | rRNA inh HTS OD600 | rRNA inh HTS RFP | FGF22 binding | MLL AF4-AF9 inh
CCCNC(=O)N(C)C[C@@H]1Oc2cc(Br)ccc2S(=O)(=O)N([C@@H](C)CO)C[C@H]1C | 2&1 | 3&7 | 1.0&-2.7 | i | -2.0&-1.3&-1.2
CCCNC(=O)[C@@H]1[C@@H](CO)[C@@H]2Cn3c(ccc(C4=CCCC4)c3=O)[C@@H]2N1C(=O)C1CC1 | 3 | -5 | -1.6 | i | -1.3
O=C(C[C@H]1CC[C@@H](NC(=O)c2ccc3c(c2)OCO3)[C@H](CO)O1)NCc1ccc(Oc2ccccc2)cc1 | -3 | -4 | 1.3 | i | 0.4
O=C(C[C@@H]1C[C@@H]2c3cc(NC(=O)CC4CC4)ccc3O[C@@H]2[C@@H](CO)O1)NCc1ccc(Cl)cc1 | -1 | -6 | 2.1 | i | -2.1
CCOC(=O)C[C@@H]1OC[C@H](C)N1S(=O)(=O)c1ccc(C)cc1 | 8 | 11 | 5.9 | i | 0.4
COc1cccc(C(c2nnnn2C(C)(C)C)N2CCN(C/C=C/c3ccccc3)CC2)c1OC (centres undefined) | -37 | -72 | 2.5 | i | 12
CC=Cc1ccc2n(c1=O)C[C@H]1[C@H](CO)[C@@H](C(=O)N(C)C)N(C(=O)CC3CC3)[C@@H]21 (mixture of isomers) | 4 | 11 | -3.2 | i | -0.3
C[C@H]1CN([C@@H](C)CO)C(=O)Cc2cc(NS(=O)(=O)c3ccccc3)ccc2O[C@H]1CN(C)C(=O)Nc1ccc(C(F)(F)F)cc1 | 5 | 1 | -0.3 | i | -23
CC(C)NC(=O)Nc1ccc2c(c1)C(=O)N([C@H](C)CO)C[C@H](C)[C@H](CN(C)Cc1ccc(-c3ccccc3)cc1)O2 | -41 | -41 | 4.5 | i | 2.2
C/C=C/c1cnc2c(c1)C(=O)N([C@H](C)CO)C[C@@H](C)[C@@H](CN(C)C(=O)Nc1c(C)noc1C)O2 | 8 | 13 | -1.4 | i | -3.7
O=C(C[C@@H]1CC[C@H](NC(=O)Nc2ccc(F)cc2)[C@H](CO)O1)NCCN1CCCC1 | 1 | 6 | -0.7 | i | -5.6
CC(C)C#Cc1ccc([C@@H]2[C@H](C#N)N(C(=O)c3ccccn3)[C@H]2CO)cc1 | 5 | -33 | 2.1 | i | 1.8

Brought forward from above: 2 compounds, then new ones.
Structure | rRNA inh HTS | rRNA inh HTS OD600 | rRNA inh HTS RFP | FGF22 binding | MLL AF4-AF9 inh
O=C(C[C@@H]1CC[C@H](NC(=O)Nc2ccc(F)cc2)[C@H](CO)O1)NCCN1CCCC1 | 1 | 6 | -0.7 | i | -5.6
CC(C)C#Cc1ccc([C@@H]2[C@H](C#N)N(C(=O)c3ccccn3)[C@H]2CO)cc1 | 5 | -33 | 2.1 | i | 1.8
C[C@H]1CN([C@@H](C)CO)C(=O)c2cc(NC(=O)NC3CCCCC3)ccc2O[C@H]1CN(C)Cc1ccc(-c2ccccc2)cc1 | 2 | 0 | 0.5 | i | -1.7
C[C@@H]1CCCCO[C@@H](CN(C)C(=O)Nc2ccc3c(c2)OCO3)[C@@H](C)CN([C@H](C)CO)C(=O)c2cc(NC(=O)c3ccccc3)ccc2O1 | 5 | 11 | -0.5 | i | -0.6
CCC(=O)Nc1ccc2c(c1)C(=O)N(C)C[C@H](OC)[C@H](C)CN(CCc1ccccc1)[C@H](C)CO2 | -3 | -2 | -1.1 | i | 0.6
Cc1ccc2cc(NC(=O)C3(C)CCN3C(C)C)ccc2n1 (centres undefined) | 3 | 11 | -5.5 | i | -3.3
C[C@H](CO)N1C[C@H](C)[C@H](CN(C)Cc2ccccc2)Oc2ccc(NC(=O)C3CCCCC3)cc2C1=O | 3 | -5 | -1.1 | i | -5.6
Cc1noc(C)c1NC(=O)Nc1ccc2c(c1)C(=O)N([C@@H](C)CO)C[C@@H](C)[C@H](CN(C)S(=O)(=O)c1cn(C)cn1)O2 | 2 | 0 | -3.5 | i | -1.9
O=c1cc(CO)[nH]nc1CO | 11 | 21 | -0.8 | i | -0.4
C[C@@H]1CN([C@@H](C)CO)S(=O)(=O)c2ccc(C#CC3CC3)cc2O[C@@H]1CN(C)C(=O)C1CCC1 | 1 | -1 | 7.2 | i | 0.1
COc1cccc(C(C)(O)c2nc(-c3cccc(NC(C)=O)c3)cs2)c1 (centres undefined) | 1 | -7 | 5.7 | i | 9.2
O=C(CC1CC1)Nc1ccc2c(c1)[C@H]1C[C@@H](CC(=O)NC3CCCC3)O[C@@H](CO)[C@H]1O2 | 2 | 2 | -0.2 | i | -0.3
C[C@@H]1CCCCO[C@H](CN(C)C)[C@H](C)CN([C@@H](C)CO)C(=O)c2cc(NS(=O)(=O)c3ccc(F)cc3)ccc2O1 | -2 | -1 | -1.7 | i | -2.2
C[C@@H]1CN([C@H](C)CO)C(=O)Cc2cc(NC(=O)Nc3ccc(C(F)(F)F)cc3)ccc2O[C@H]1CN(C)C(=O)Nc1ccc(C(F)(F)F)cc1 | -1 | -10 | -1.8 | i | -11
O=C(c1ccc(F)cc1)N1CCCCN2[C@H](C1)[C@@H](c1ccc(-c3ccccc3)cc1)[C@@H]2CO | -55 | -69 | -1.3 | i | -2.1
O=C(C[C@H]1C=C[C@H](NC(=O)C2CCOCC2)[C@H](CO)O1)NCc1ccncc1 | 3 | -2 | -0.3 | i | 0.4

Screening results from PubChem BioAssay.

This is a subset, so the mix of outcomes need not match the whole.
